# Anthrax LT inh: qHTS Assay for Anthrax Lethal Toxin Internalization; Cells, anthrax lethal toxin internalization, FRET ratio (460/530); Potency, µM (series often up to 40 µM), without a hit: at the top dose activity change, negative = inhibition, most hits filed as inhibitors; hit rate 0.67% among 70,000; AID 912, 2007; active = well fitted falling ratio curve with the 530 nm signal flat; inconclusive = other ratio curves, or a change in one channel alone; inactive = flat curves in the ratio and both channels; the % refers to the ratio; also: % is scaled to controls: 0 for no effect and ±100 for the full control effect; nearly all actives have a fitted effect of over 50% in size; tested in ME-180 cells; beta-lactamase reporter
# SmPrx2 inh: Schistosoma Mansoni Peroxiredoxins (Prx2). S. mansoni Prx2 activity coupled to TGR/GSH (TGR is thioredoxin glutathione reductase), NADPH fluorescence loss, qHTS; some inactives read as strong as hits. Potency, µM. hit rate 0.07% among 65,000. AID 448, 2006; active means full or partial inhibition curve with a strong effect at the top dose; inconclusive means weaker partial or single-point curve; inactive means no accepted curve; also: series up to 57 µM; many of its hits are not listed in these tables
#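 qHTS, coupled TGR/Prx2 format; 15 min compound preincubation at RT; reaction started with H2O2 (2.5 mM aliquot); kinetic NADPH fluorescence decrease, ex 365/em 450 nm.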
# * hit, by the source's call; ? = inconclusive; nt = not tested or not shown; [ ] = dose if it differs, or a comment. Potency is read from the fitted curve at half-maximal effect.
SMILES,Anthrax LT inh,SmPrx2 inh
O=C1CSC(c2cccs2)N1c1ccccc1 (configuration not stated),-2.5%,>57
CCOCCCNc1nc(=S)[nH]c2cc(OC)c(OC)cc12,9.8%,>57
Cc1nn(-c2ccccc2)c2c1C(c1ccco1)C(C#N)=C(N)O2 (configuration not stated),-10.7%,>57
CCN1CCN(Cc2c(O)ccc3c(=O)c(-c4ccccc4OC)coc23)CC1,5.7%,>57
CCCCOC(=O)Cn1cnc2ccc(Br)cc2c1=O,2.8%,>57
CCOC(=O)N1CCN(C(=O)c2cn(-c3ccc(C)c(C)c3)c(=O)c3ccccc23)CC1,1.8%,>57
Cc1ncc(C23CC4CC(CC(C4)C2)C3)[nH]1,-7.5%,>57
CC1(C)NC(=O)N(CCOc2cccc(Cl)c2Cl)C1=O,-9.2%,>57
N=C1N=C(N)c2cc3ccccc3cc21,?,nt
CCC(C)NS(=O)(=O)c1ccc(NS(C)(=O)=O)cc1 (configuration not stated),-1.2%,>57
CCOC(=O)Cn1c(=O)oc2cc(S(=O)(=O)NCc3ccccn3)ccc21,9.1%,>57
O=C(NCc1ccco1)C(c1cccs1)N(Cc1ccccc1)C(=O)Cn1nnc2ccccc21 (configuration not stated),-13.1%,>57
COC(=O)[C@@H]1CC[C@H](C)[C@@H](c2ccc(C)cc2)N1C(=O)c1ccc(/C=N\O[C@@H](C)c2cn([C@H](CO)Cc3ccccc3)nn2)cc1,?,nt
O=C(CSc1nccc(=O)[nH]1)N1CCCc2ccccc21,-2.3%,>57
COC(=O)/C(=C1/Oc2cc3c(cc2S1)OCO3)C(F)(F)F,?,>57
Cn1cc(-c2nc3cnc(Oc4cccc(Cl)c4)nc3n(C3CC3)c2=O)c2ccccc21,?,>11.4
Cc1ccc(CSC2=NCCN2C(=O)c2ccco2)cc1,-22.2%,>57
O=C(CSc1nnc(-c2ccncc2)n1Cc1ccco1)Nc1ccccc1Cl,-3.5%,>57
O=C(C[n+]1ccc2ccccc2c1)c1ccc2ccc3ccccc3c2c1,-3.1%[8 µM],?
Cc1nn(C/C(C#N)=N\O)c(C)[n+]1N,nt,>57
Cc1cc(=O)oc(C)c1C(=O)NCc1c(F)cc(F)cc1F,10.6%,>57
O=C(c1cnccn1)N1CCC2(CC1)CN(c1ccccc1)C2,4.8%,>57
Cn1c(=O)oc2cc(S(=O)(=O)NCC3CCCO3)ccc21 (configuration not stated),-1.3%,>57
CCOc1ccccc1C1C(C(=O)OC)=CN(C)C=C1C(=O)OC,?,>57
O=C(CSc1nnc(Cc2ccccc2)n1Cc1ccco1)NC12CC3CC(CC(C3)C1)C2,-22.5%,>57
CCOc1ccc(-c2nnn(CC(=O)c3ccc4c(c3)OCCO4)n2)cc1OCC,-2.0%,>57
CC(C)CO/N=C1/C[C@@H](O)[C@@H](O)[C@@H]2[C@@H]3C(=O)N(c4cccc(Oc5ccccc5)c4)C(=O)[C@H]3CC[C@H]12,0.5%[8 µM],nt
CCCCOC(=O)NS(=O)(=O)c1sc(CC(C)C)cc1-c1ccc(Cn2c(CC)nc3c(C)cc(C)nc32)cc1,?,>57
COc1cc(C(=O)NCC2CCCO2)ccc1OCc1c(C)noc1C (configuration not stated),-10.0%,>57
COC(=O)CSc1nnc(-c2ccccc2OC)o1,nt,>57

# Some of these compounds in order of count of non-hydrogen atoms, highest first.
SMILES,Anthrax LT inh,SmPrx2 inh
O=C(CSc1nnc(Cc2ccccc2)n1Cc1ccco1)NC12CC3CC(CC(C3)C1)C2,-22.5%,>57
CCOc1ccc(-c2nnn(CC(=O)c3ccc4c(c3)OCCO4)n2)cc1OCC,-2.0%,>57
COc1cc(C(=O)NCC2CCCO2)ccc1OCc1c(C)noc1C (configuration not stated),-10.0%,>57
CCOc1ccccc1C1C(C(=O)OC)=CN(C)C=C1C(=O)OC,?,>57

# Some of the entries so far, with tabs:
Molecule	Anthrax LT inh	SmPrx2 inh
CCOc1ccccc1C1C(C(=O)OC)=CN(C)C=C1C(=O)OC	?	>57
O=C(CSc1nnc(Cc2ccccc2)n1Cc1ccco1)NC12CC3CC(CC(C3)C1)C2	-22.5%	>57

# Additional records:
SMILES,Anthrax LT inh,SmPrx2 inh
Cc1ccc(C)c(-n2nnnc2Sc2nnnn2-c2ccccc2)c1,?,>57
CC1(N2CCOCC2)CC2(O)C(=[N+]1[O-])CCc1nonc12 (configuration not stated),?,>57
Cc1cc(S(=O)(=O)N2CCN(c3c(C)cccc3C)CC2)ccc1F,?,>57
Cn1c(=O)c2c([nH]c(=O)n2C)n(C)c1=O,-2.9%,>57
COc1ccccc1OCC(=O)Nc1ccc(S(=O)(=O)N2CCCCCC2)cc1,?,>57
C=CCSc1nc(C)c(CC(=O)OCC(C)C)c(=O)[nH]1,-12.3%,nt
O=C(NCCOc1ccccc1)c1cc2ccccc2o1,11.2%,>57
O=C(COc1ccccc1)n1nc(-c2ccc(Cl)cc2)nc1NCc1ccco1,2.8%,>57
COc1ccc(OC)c(NC(=O)Cc2coc3ccc(C)cc23)c1,-7.8%,>57
O=C(NCCc1ccccc1)C1CCCN(S(=O)(=O)c2cccnc2)C1 (configuration not stated),-0.5%,>57
COc1ccc(S(=O)(=O)NCCc2csc(C)n2)cc1C,-8.6%,>57
CN(C)C(=O)c1c(-c2ccccc2)oc2ccc(O)cc12,-10.3%,>57
Cc1[nH]nc(N=CC2=C(O)CC(C)(C)CC2=O)c1-c1ccc(Cl)cc1,nt,>57
COc1ccc(S(=O)(=O)NCCC(=O)NCc2ccccc2)cc1,nt,>57
COc1ccccc1C(CCN(Cc1cccs1)C(C)=O)c1ccco1 (configuration not stated),-27.3%,>57
CCn1c(CC(=O)Nc2ccc(C)cc2)nnc1SCC(=O)NCc1ccccc1,5.7%,>57
CO/N=C\[C@@H](C)[C@H](OCc1ccccc1)C(C)C,1.9%[1.6 µM],nt
C=CCn1c(NC(=O)c2ccc(Br)o2)c(C(=O)OCC)sc1=S,?,>57
O=C(OCC(=O)N1CCCC1)c1cccs1,9.0%,>57
C/C(=N\n1nnnc1Nc1ccccc1)c1ccc(N)cc1,3.4%,>57
O=C(OCc1nc2ccccc2s1)c1cnccn1,10.1%,>57
Cc1cccc(OCC(=O)OCC(=O)c2c(N)n(C)c(=O)n(C)c2=O)c1,?,>57
COc1ccc(OC)c(Nc2nc(-c3sc(C)nc3C)cs2)c1,?,nt
CC[N+](CC)(CC)CCOc1cccc(OCC[N+](CC)(CC)CC)c1OCC[N+](CC)(CC)CC,-4.0%[3.58 µM],?
CCc1ccccc1NC(=O)CN(C)Cc1nc(N)nc(Nc2ccccc2C)n1,7.7%,>57
COc1cccc(-c2nc(CS(=O)CC(=O)NCc3ccccc3)c(C)o2)c1 (configuration not stated),-0.9%,>57
CCOC(=O)c1cnc(-n2nc(C)cc2C)nc1NCc1ccccc1,-25.9%,>57
O=C(Nc1ccc(Cl)cn1)c1cc2ccccc2o1,?,>57
O=C(O)C1CCCN1S(=O)(=O)c1cc(Cl)ccc1Cl (configuration not stated),-3.7%,nt
N[C@@H](C(=O)O)c1ccc(P(=O)(O)O)cc1,-11.7%,>57
c1ccc(-c2nc3cc(Oc4ccc5oc(-c6ccccn6)nc5c4)ccc3o2)nc1,-18.9%,>57
CN(C(=O)c1cccc(N2C(=O)C3CC=CCC3C2=O)c1)C1CCCCC1 (configuration not stated),-0.1%,>57
CC(=NC(C)C)C1=C(O)CCC1=O,-1.9%,>57
CC(=O)Oc1cc2oc(=O)c3c(c2cc1Cl)CCC3,?,>57
Cc1ccnc(N2CCC(C(=O)Nc3ccc(Oc4ccccc4)cc3)CC2)n1,-7.1%,>57
CCOC(=O)c1oc2ccccc2c1NC(=O)COc1cccc(OC)c1,-9.1%,>57
CCn1c(=N)n(CC(O)c2ccco2)c2ccccc21 (configuration not stated),-17.4%,>57
C=CCn1c(SCc2ccc(C(=O)OC)cc2)nnc1-c1sc(N)nc1C,2.5%,>57
Cc1csc2ncc(C(=O)Nc3ccc4c(c3)OCCO4)c(=O)n12,?,>57
c1ccc(COc2ccc(CNn3cnnc3)cc2)cc1,-6.4%,>57
Cc1nc(NC2=NCN(CCN3CCOCC3)CN2)nc2c(C)cccc12,-18.4%,>57
CCN(CC)S(=O)(=O)c1ccc2c(c1)c(=O)c(C(=O)N1CCN(c3ccccc3)CC1)cn2C,7.1%,>57
CCN(CC)CCN1C(=O)c2ccccc2NC1c1cccc(F)c1 (configuration not stated),1.4%,>57
O=C(Nc1ccccc1F)c1cc(S(=O)(=O)N2CCCCC2)cs1,nt,>57
O=C(CC(Sc1ccccc1)c1cccs1)c1ccco1 (configuration not stated),-11.1%,>57

# Part of the list above, with two lines to a compound:
# Value order – Anthrax LT inh | SmPrx2 inh
> CN(C)C(=O)c1c(-c2ccccc2)oc2ccc(O)cc12
 : -10.3% | >57
> N=C1N=C(N)c2cc3ccccc3cc21
 : ? | nt

# The list continues.
SMILES,Anthrax LT inh,SmPrx2 inh
O=C(c1ccco1)N1CCN(C(=O)c2cc(-c3ccncc3)nc3ccc(Br)cc23)CC1,-18.5%,>57
CC(=O)c1c(C)[nH]c(C(=O)NCCc2cccc(C)c2)c1C,7.1%,>57
CCOC(=O)c1c(N)n(Cc2ccc(OC)cc2)c2nc3ccccc3nc12,?,>57
CCCCCCCCCCCCCCSCC(=O)O,-5.1%,>57
CCCCCSc1nc2c(c(=O)[nH]c(=O)n2C)n1C(C)C,-16.0%,>57
O=C(c1ccccc1)c1cccn1CC(=O)N1CCN(c2ccccc2)CC1,1.5%,>57
C/C(N)=C(/C#N)C(=O)CSc1nc(C2CCCCC2)n(-c2ccccc2)n1,0.5%,>57
Cc1ccc(CNC(=O)C2CC(=O)OC23CCCC3)c(C)c1 (configuration not stated),-2.1%,>57
COc1cccc(/C=C/c2ccncc2)c1OC,16.5%,>57
COc1cccc(N2CC(C(=O)OC(C)C(=O)c3ccccc3)CC2=O)c1 (configuration not stated),2.9%,>57
COc1ccc(OC)c(S(=O)(=O)N2CCCCC2C(=O)N2CCN(c3ccccn3)CC2)c1 (configuration not stated),-19.0%,?
Cn1c(=O)cc(OCC(=O)N2CCC3(CC2)OCCO3)c2ccccc21,7.6%,>57
COC(=O)[C@@]1(Cc2ccc(F)cc2)[C@H]2c3cc(C(=O)N(C)C)n(Cc4ccc(O)c(OC)c4)c3C[C@H]2CN1C(=O)c1ccccc1,-8.7%,>57
Cc1ccc(-c2nc(C3CCCN(S(=O)(=O)c4ccc(C)cc4)C3)no2)cc1 (configuration not stated),?,>57
CCOC(=O)C1=C(CS(=O)(=O)c2ccccc2)NC(=O)NC1c1ccccc1OCC (configuration not stated),-13.6%,>57
Nc1c(C(=O)NCc2ccco2)nnn1Cc1ccccc1,19.7%,>57
Cc1ccnc(NC(=O)Nc2cccc(F)c2)c1,3.5%,>57
COc1ccc(NC(=O)CSc2nnc(CNC(=O)c3ccco3)n2-c2ccccc2OC)cc1,0.2%,>57
COC(=O)c1[nH]c2ccc(Br)cc2c1NC(=O)C(C)N1CCN(C2CCCCC2)CC1 (configuration not stated),?,>57
O=C(c1cccn2c(=O)c3cc(Br)ccc3nc12)N1CCN(c2ccccn2)CC1,nt,>57
CCOC(=O)CCN1C(=O)[C@H]2[C@H]3[C@H](O)[C@H](O)C/C(=N/OCc4ccccc4)[C@H]3CC[C@@H]2C1=O,9.6%[8 µM],nt
Cc1nnc2c3cnn(-c4ccc(Cl)cc4)c3ncn12,7.7%,>57
Cc1nc2ccc(NC(=O)N3CCN(c4ccccn4)CC3)cc2s1,11.1%,>57
COc1cccc(C(=O)N2CCN(C(=O)c3cccc4ccccc34)CC2)c1OC,?,>57
CC1CCCCN1C(=O)Cc1ccc(F)cc1 (configuration not stated),-5.6%,>57
O=c1ccnc(SCc2ccccc2Cl)[nH]1,-1.1%,>57
O=S(=O)(NCc1ccc2c(c1)OCO2)c1ccc2c(c1)oc1ccccc12,-0.2%,>57
COc1ccccc1-n1cnnc1SCC(=O)N1CCN(S(=O)(=O)c2ccccc2)CC1,?,>57
CC(c1ccccc1)n1cc(C(=O)NCC2CCCO2)nn1 (configuration not stated),?,>57
CCCN1C(=O)c2ccc(C(=O)NC3=NCCS3)cc2C1=O,nt,>57
CCN(CC)C(=O)CSc1nnc([C@H](Cc2c[nH]c3ccccc23)NC(=O)OC(C)(C)C)o1,?,>57
CSc1ccc(S(=O)(=O)Nc2ccc(F)cc2)cc1,5.3%,>57
CCCn1c(-c2ccc(F)cc2)nc2c(N3CCN(CCC(=O)OCC)CC3)nc(C)nc21,11.9%,nt
Cc1ccccc1-n1c(SC(C)C(N)=O)nnc1-c1cccnc1 (configuration not stated),-11.3%,>57
O=C(NC12CC3CC(CC(C3)C1)C2)N1CCCC(CO)C1 (configuration not stated),0.6%,>57
CS(=O)(=O)N1CCN(C(=O)c2ccc(F)cc2)CC1,-6.7%,>57
N#Cc1c(-c2ccco2)cc(-c2cccnc2)nc1N,nt,>57
Cc1ccc(NC(=O)c2cc(NC(=O)c3ccco3)ccc2N2CCOCC2)cc1,?,>57
COc1cccc(-c2cncnc2NCc2cccs2)c1,?,>57
CCOC(=O)N1CCN(C(=O)CSc2ncnc3ccccc23)CC1,5.1%,>57
CCN1CCN(C(=O)C2CCN(S(=O)(=O)c3cccc4cccnc34)CC2)CC1,22.5%,>57
Cc1ccc(C(=O)CSc2nnc(COc3cc(C)cc(C)c3)o2)cc1,-11.0%,>57
COc1cc(NC(=O)c2cc(-c3cccs3)on2)cc(OC)c1OC,?,>57
CCOC(=O)c1c(NC(=O)c2cccs2)sc(C)c1CC,-0.1%,>57
NCCCP(=O)(O)CC1CCCCC1,0.0%,>57

# Only part of the results is shown; rates above refer to the full screens.
